Yeast UUG start – modulators of yeast start codon fidelity, primary screen, whole organism, S. cerevisiae, single point, plate reader. S. cerevisiae UUG-firefly luciferase reporter, luminescence/redox ratio. activity score, % at 18.7 µM. actives 0.13% (n = 350,000). AID 602363, 2012;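 active = replicate mean at a twofold rise or more, about +100% in these data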;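 note: firefly luciferase made from a UUG start codon reports start codon fidelity; reporter light over untreated wells divided by growth signal over untreated wells; some hits fall short of that in this replicate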
HIV Env fusion – inhibitors of HIV-1 Env-driven cell-cell fusion, primary screen, HeLa-JRFL effector, CEM21 target cells, luciferase; actives 1.1% (n = 360,000); inhibition, % at 12.3 µM; AID 651610, 2012;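 active = mean replicate inhibition score of at least 50 and every replicate individually at or above 50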;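 note: 0% = plate neutral controls and 100% = maraviroc near 300 nM; one replicate is shown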
Starred values were filed as active, the others as inactive; [ ] = dose if it differs, or a comment.

Every second line gives: Yeast UUG start, HIV Env fusion
C[C@H](CO)N1C[C@H](C)[C@H](CN(C)C)Oc2c(NC(=O)Nc3ccccc3)cccc2C1=O
  2, 0[16.7 µM]
CCC(=O)N(C)C[C@@H]1Oc2cc(-c3ccc(C)cc3)ccc2S(=O)(=O)N([C@@H](C)CO)C[C@H]1C
  1, -18[16.7 µM]
CCCNC(=O)N[C@H]1CC[C@H](CC(=O)N2CCN(C)CC2)O[C@H]1CO
  -17, 11[16.7 µM]
C[C@@H]1CN([C@@H](C)CO)C(=O)c2cc(N(C)C)ccc2O[C@@H](C)CCCCO[C@H]1CN(C)C(=O)CCC(F)(F)F
  5, -3[16.7 µM]
CC(C)NC(=O)Nc1ccc2c(c1)C(=O)N(C)[C@H]1CC[C@H](CC(=O)Nc3ccccc3)O[C@H]1CO2
  7, -15[16.7 µM]
COCC#Cc1ccc2c(c1)O[C@H](CN(C)C)[C@@H](C)CN([C@H](C)CO)S2(=O)=O
  -5, 10[16.7 µM]
O=C(C[C@@H]1C[C@@H]2c3cc(NS(=O)(=O)c4ccc(F)cc4)ccc3O[C@@H]2[C@@H](CO)O1)NC1CCCC1
  -11, -13[16.7 µM]
C[C@H](CO)N1C[C@H](C)[C@@H](CN(C)S(=O)(=O)c2ccccc2)Oc2cc(Br)ccc2S1(=O)=O
  12, 28[16.7 µM]
CC(=O)N(C)C[C@H]1Oc2cc(C#Cc3cccc(F)c3)ccc2S(=O)(=O)N([C@@H](C)CO)C[C@H]1C
  9, 9[16.7 µM]
C[C@H]1CN([C@@H](C)CO)C(=O)CCCn2cc(nn2)CO[C@@H]1CN(C)CC1CCCCC1
  14, -3[16.7 µM]
C[C@H](CO)N1C[C@H](C)[C@H](CN(C)Cc2ccc(C(=O)O)cc2)Oc2ccc(NC(=O)C3CC3)cc2CC1=O
  13, 18[16.7 µM]
COCC(=O)N(C)C[C@H]1Oc2cc(-c3ccc(C#N)cc3)ccc2S(=O)(=O)N([C@@H](C)CO)C[C@@H]1C
  5, -4[16.7 µM]
COc1ccc(-c2ccc([C@@H]3[C@@H](C#N)N(C(=O)c4cccnc4)[C@H]3CO)cc2)cc1
  -10, 14[16.7 µM]
C[C@@H]1CCCCO[C@H](CN(C)C(=O)C2CCCCC2)[C@H](C)CN([C@@H](C)CO)C(=O)c2cc(N(C)C)ccc2O1
  12, 8[16.7 µM]
C[C@H](CO)N1C[C@H](C)[C@@H](CN(C)Cc2ccc(C(=O)O)cc2)OCCCC[C@H](C)Oc2ccc(NC(=O)c3ccccc3)cc2C1=O
  -2, -14[16.7 µM]
CCCC#Cc1ccc2c(c1)O[C@H](CN(C)C(=O)C1CC1)[C@H](C)CN([C@H](C)CO)S2(=O)=O
  26, 7[16.7 µM]
CCCN(C)C[C@@H]1Oc2ncc(-c3ccccc3F)cc2C(=O)N([C@H](C)CO)C[C@H]1C
  6, -6[16.7 µM]
COc1ccc(S(=O)(=O)N(C)C[C@@H]2Oc3ccc(N(C)C)cc3CC(=O)N([C@@H](C)CO)C[C@@H]2C)cc1
  2, 16[16.7 µM]
C[C@@H]1CN([C@@H](C)CO)C(=O)c2cc(NC(=O)c3ccncc3)ccc2O[C@H]1CN(C)C(=O)Nc1ccc(C(F)(F)F)cc1
  -3, 1[16.7 µM]
Cc1ccc(S(=O)(=O)N(C)C[C@H]2OCCCC[C@@H](C)Oc3ccc(NC(=O)Nc4ccc(F)cc4)cc3C(=O)N([C@@H](C)CO)C[C@H]2C)cc1
  -15, -22[16.7 µM]
C[C@@H]1CCCCO[C@H](CN(C)C(=O)c2ccncc2)[C@@H](C)CN([C@@H](C)CO)C(=O)c2cc(NC(=O)C3CCCCC3)ccc2O1
  -3, -24[16.7 µM]
C[C@H]1CN([C@@H](C)CO)C(=O)c2cccc(NS(=O)(=O)c3cccs3)c2O[C@H]1CN(C)CC1CC1
  -2, 5[16.7 µM]
C[C@@H]1CCCCO[C@H](CN(C)Cc2ccc(C(=O)O)cc2)[C@H](C)CN([C@@H](C)CO)C(=O)c2cc(NC(=O)CCC(F)(F)F)ccc2O1
  -8, -1[16.7 µM]
CC1(C(=O)NCC2CC2)Cc2c(-c3ccc4c(c3)OCO4)ccnc2O1 (configuration not stated)
  -8, 4
C[C@@H]1CN([C@@H](C)CO)S(=O)(=O)c2ccc(-c3cncnc3)cc2O[C@@H]1CN(C)C(=O)c1ccc2c(c1)OCO2
  -3, 13[16.7 µM]
C[C@@H]1CCCCO[C@@H](CN(C)C(=O)Nc2cccc3ccccc23)[C@H](C)CN([C@@H](C)CO)C(=O)c2cc(NS(=O)(=O)c3ccc(F)cc3)ccc2O1
  -4, -22[16.7 µM]
C[C@@H]1CCCCO[C@H](CN(C)C(=O)c2ccccc2)[C@@H](C)CN([C@@H](C)CO)C(=O)c2cc(NC(=O)Nc3ccc4c(c3)OCO4)ccc2O1
  1, 8[16.7 µM]
Cc1cc(C(=O)Nc2cccc3c2O[C@@H](CN(C)S(C)(=O)=O)[C@@H](C)CN([C@@H](C)CO)C3=O)n(C)n1
  20, -7[16.7 µM]
COCC(=O)Nc1ccc2c(c1)C(=O)N(C)[C@H]1CC[C@@H](CC(=O)NCc3ccccc3)O[C@H]1CO2
  2, 16[16.7 µM]
O=C(C[C@@H]1CC[C@H]2NC[C@@H](O)COC[C@@H]2O1)Nc1ccc(-c2ccccc2)cc1
  -12, -10[16.7 µM]

An excerpt from above in order of molar mass, rising.
Every second line gives: Yeast UUG start, HIV Env fusion
C[C@H]1CN([C@@H](C)CO)C(=O)c2cccc(NS(=O)(=O)c3cccs3)c2O[C@H]1CN(C)CC1CC1
  -2, 5[16.7 µM]
C[C@@H]1CN([C@@H](C)CO)S(=O)(=O)c2ccc(-c3cncnc3)cc2O[C@@H]1CN(C)C(=O)c1ccc2c(c1)OCO2
  -3, 13[16.7 µM]
C[C@@H]1CN([C@@H](C)CO)C(=O)c2cc(NC(=O)c3ccncc3)ccc2O[C@H]1CN(C)C(=O)Nc1ccc(C(F)(F)F)cc1
  -3, 1[16.7 µM]
C[C@@H]1CCCCO[C@H](CN(C)C(=O)c2ccncc2)[C@@H](C)CN([C@@H](C)CO)C(=O)c2cc(NC(=O)C3CCCCC3)ccc2O1
  -3, -24[16.7 µM]
C[C@@H]1CCCCO[C@H](CN(C)C(=O)c2ccccc2)[C@@H](C)CN([C@@H](C)CO)C(=O)c2cc(NC(=O)Nc3ccc4c(c3)OCO4)ccc2O1
  1, 8[16.7 µM]
Cc1ccc(S(=O)(=O)N(C)C[C@H]2OCCCC[C@@H](C)Oc3ccc(NC(=O)Nc4ccc(F)cc4)cc3C(=O)N([C@@H](C)CO)C[C@H]2C)cc1
  -15, -22[16.7 µM]
C[C@@H]1CCCCO[C@@H](CN(C)C(=O)Nc2cccc3ccccc23)[C@H](C)CN([C@@H](C)CO)C(=O)c2cc(NS(=O)(=O)c3ccc(F)cc3)ccc2O1
  -4, -22[16.7 µM]

Next part
Every second line gives: Yeast UUG start, HIV Env fusion
CN(C)CC(=O)N1[C@H](C#N)[C@@H](c2ccc(C#CC3CCCC3)cc2)[C@@H]1CO
  7, -7[16.7 µM]
O=C(N[C@@H]1CC[C@H](CCNS(=O)(=O)c2ccc(Cl)cc2)O[C@H]1CO)c1cnccn1
  5, 0[16.7 µM]
CCS(=O)(=O)Nc1ccc2c(c1)C(=O)N(C)C[C@H](OC)[C@H](C)CN(C)[C@@H](C)CO2
  -3, 10[16.7 µM]
CCCC#Cc1cnc2c(c1)C(=O)N([C@H](C)CO)C[C@H](C)[C@@H](CN(C)C(=O)C1CC1)O2
  0, 20[16.7 µM]
C[C@H](CO)N1C[C@H](C)[C@@H](CN(C)S(=O)(=O)c2ccccc2)Oc2ccc(NC(=O)CCCCCC(=O)Nc3ccccc3N)cc2CC1=O
  2, 21[16.7 µM]
C[C@H](CO)N1C[C@H](C)[C@H](CN(C)C(=O)C2CCCCC2)Oc2ncc(-c3ccccc3)cc2C1=O
  -5, 30[16.7 µM]
Cc1cc(C(=O)Nc2cccc3c2O[C@@H](CN(C)Cc2ccc(Oc4ccccc4)cc2)[C@H](C)CN([C@@H](C)CO)C3=O)n(C)n1
  24, 16[16.7 µM]
C[C@H](CO)N1C[C@H](C)[C@@H](CN(C)C(=O)Nc2ccc(C(F)(F)F)cc2)Oc2ccc(NS(=O)(=O)c3ccc(F)cc3)cc2CC1=O
  4, -5[16.7 µM]
CN1C(=O)c2cc(NC(=O)c3ccc(F)c(F)c3)ccc2OC[C@@H]2O[C@@H](CC(=O)O)CC[C@@H]21
  27, 9[16.7 µM]
C[C@@H]1CN([C@H](C)CO)C(=O)c2cc(C3=CCCC3)cnc2O[C@H]1CN(C)S(C)(=O)=O
  7, 2[16.7 µM]
C[C@@H]1CN([C@H](C)CO)C(=O)c2cc(NC(=O)NC3CCCCC3)ccc2O[C@H]1CN(C)C(=O)Nc1ccccc1
  28, -5[16.7 µM]
COC(=O)C[C@@H]1CC[C@@H]2[C@H](COc3ccc(NC(=O)Nc4ccccc4C)cc3C(=O)N2C)O1
  -3, -3[16.7 µM]
CC(C)CC#Cc1cnc2c(c1)C(=O)N([C@@H](C)CO)C[C@H](C)[C@@H](CN(C)C(=O)CCN1CCCCC1)O2
  -9, 14[16.7 µM]
Cc1ccccc1S(=O)(=O)NCC[C@@H]1CC[C@@H](NC(=O)C2CC2)[C@H](CO)O1
  -2, -2[16.7 µM]
C[C@@H]1CN([C@H](C)CO)C(=O)c2cc(NS(=O)(=O)c3ccc(Cl)cc3)ccc2O[C@@H]1CN(C)C(=O)Nc1ccccc1
  6, -1[16.7 µM]
C[C@@H]1CN([C@H](C)CO)C(=O)c2cc(NC(=O)NC3CCCCC3)ccc2O[C@@H](C)CCCCO[C@@H]1CN(C)C(=O)Cc1ccccc1
  14, 37[16.7 µM]
CCC(=O)Nc1ccc2c(c1)OC[C@H](C)N(C(=O)C1CC1)C[C@H](C)[C@@H](OC)CN(C)C2=O
  -2, -2[16.7 µM]
COc1ccc(NC(=O)Nc2ccc3c(c2)C(=O)N([C@H](C)CO)C[C@@H](C)[C@H](CN(C)S(=O)(=O)c2ccccc2)O3)cc1
  -5, 15[16.7 µM]
C[C@@H]1CN([C@H](C)CO)C(=O)c2cccc(NC(=O)C3CCOCC3)c2O[C@@H]1CN(C)CC1CCCCC1
  -5, -8[16.7 µM]
C[C@H](CO)N1C[C@H](C)[C@@H](CN(C)C(=O)CN(C)C)Oc2cc(-c3cccnc3)ccc2S1(=O)=O
  7, -11[16.7 µM]
C[C@H]1CN([C@@H](C)CO)S(=O)(=O)c2ccc(-c3cncnc3)cc2O[C@@H]1CN(C)Cc1cncnc1
  -33, 24[16.7 µM]
C[C@@H]1CCCCO[C@@H](CN(C)Cc2ccncc2)[C@@H](C)CN([C@@H](C)CO)C(=O)c2cc(NS(=O)(=O)c3ccc(Cl)cc3)ccc2O1
  37, -27[16.7 µM]
COc1ccccc1C#Cc1ccc2c(c1)O[C@H](CN(C)Cc1ccncc1)[C@@H](C)CN([C@H](C)CO)S2(=O)=O
  -14, 3[16.7 µM]
COc1ccc(NC(=O)Nc2ccc3c(c2)C(=O)N([C@H](C)CO)C[C@H](C)[C@@H](CN(C)C)OCCCC[C@H](C)O3)cc1
  6, 31[16.7 µM]
Cc1ccc(S(=O)(=O)N(C)C[C@H]2Oc3c(NS(C)(=O)=O)cccc3C(=O)N([C@@H](C)CO)C[C@@H]2C)cc1
  8, -9[16.7 µM]
Cc1noc(C)c1NC(=O)Nc1cccc2c1O[C@@H](CN(C)Cc1ccc(Oc3ccccc3)cc1)[C@@H](C)CN([C@H](C)CO)C2=O
  1, -15[16.7 µM]
C[C@H]1CN([C@@H](C)CO)S(=O)(=O)c2ccc(C#CC3CC3)cc2O[C@@H]1CN(C)C(=O)c1cnccn1
  10, -8[16.7 µM]
CC(C)NC(=O)N[C@@H]1C=C[C@H](CC(=O)NCCN2CCCC2)O[C@H]1CO
  -23, -12[16.7 µM]
COC(=O)C[C@H]1CC[C@H]2[C@H](COc3ccc(NC(=O)Nc4cccc(C)c4)cc3C(=O)N2C)O1
  8, 22[16.7 µM]
Cc1noc(C)c1S(=O)(=O)Nc1ccc2c(c1)CC(=O)N([C@@H](C)CO)C[C@H](C)[C@@H](CN(C)S(=O)(=O)c1ccc(F)cc1)O2
  5, -10[16.7 µM]
C[C@@H]1CN([C@@H](C)CO)C(=O)c2cccc(NC(=O)c3nc4ccccc4s3)c2O[C@@H]1CN(C)C(=O)Nc1ccc(F)cc1
  -3, -41[16.7 µM]
C[C@H]1CCCCO[C@H](CN(C)CC2CCCCC2)[C@@H](C)CN([C@@H](C)CO)C(=O)c2cc(NS(C)(=O)=O)ccc2O1
  -4, -1[16.7 µM]
C[C@H](CO)N1C[C@H](C)[C@@H](CN(C)S(C)(=O)=O)Oc2ncc(C#CC3CCCC3)cc2C1=O
  6, -2[16.7 µM]
O=C(CCN1CCCCC1)N[C@H]1CC[C@@H](CCn2cc(-c3ccc(F)cc3)nn2)O[C@@H]1CO
  9, 13[16.7 µM]
Cc1ccc(S(=O)(=O)Nc2ccc3c(c2)C(=O)N([C@H](C)CO)C[C@H](C)[C@H](CN(C)C(=O)c2ccccc2)OCCCC[C@H](C)O3)cc1
  21, -30[16.7 µM]
Cc1ccccc1-c1cnc2c(c1)C(=O)N([C@H](C)CO)C[C@@H](C)[C@@H](CN(C)C(=O)c1ccncc1)O2
  -1, 6[16.7 µM]
CC(C)NC(=O)N[C@@H]1CC[C@H](CCNC(=O)C2CCOCC2)O[C@@H]1CO
  -17, 5[16.7 µM]
O=C(C[C@@H]1CC[C@@H]2[C@H](COC[C@H](O)CN2C(=O)Nc2cccc(Cl)c2)O1)NCCCN1CCOCC1
  3, -4[16.7 µM]

2 compounds drawn at random from those above, as already listed:
Every second line gives: Yeast UUG start, HIV Env fusion
C[C@@H]1CCCCO[C@@H](CN(C)Cc2ccncc2)[C@@H](C)CN([C@@H](C)CO)C(=O)c2cc(NS(=O)(=O)c3ccc(Cl)cc3)ccc2O1
  37, -27[16.7 µM]
COc1ccc(S(=O)(=O)N(C)C[C@@H]2Oc3ccc(N(C)C)cc3CC(=O)N([C@@H](C)CO)C[C@@H]2C)cc1
  2, 16[16.7 µM]

Screening results deposited in PubChem BioAssay by Broad Institute.

This is a subset (hit frequency here may not be typical).
